# Source: PubChem (ICCB-Longwood Screening Facility, Harvard Medical School)
# UCH37 DUB inh: human UCH37 deubiquitinating enzyme inhibition. Q9Y5K5. purified proteasome/UCH37, Ub-AMC cleavage fluorescence. inhibition, % (test concentration not listed). actives 0.33% (n = 330,000). AID 588478;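 active means mean of two replicates above 20%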;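 further: 0% = compound-free wells with enzyme and 100% = wells lacking proteasome; stock transfer was 100 nL into about 20 µL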
# Target sequence (Q9Y5K5 whole entry, looked up): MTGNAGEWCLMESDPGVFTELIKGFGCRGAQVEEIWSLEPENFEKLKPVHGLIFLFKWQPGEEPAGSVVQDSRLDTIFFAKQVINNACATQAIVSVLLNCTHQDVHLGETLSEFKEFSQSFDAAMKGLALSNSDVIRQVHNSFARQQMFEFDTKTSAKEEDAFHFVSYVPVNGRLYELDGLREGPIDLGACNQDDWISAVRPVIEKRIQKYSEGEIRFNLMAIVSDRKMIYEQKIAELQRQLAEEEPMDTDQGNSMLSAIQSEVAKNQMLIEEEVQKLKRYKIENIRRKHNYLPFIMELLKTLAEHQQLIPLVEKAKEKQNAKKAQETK
#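 Signal – fluorescence, ex 355 nm, em 460 nm · System – Proteasome-bound UCH37 · Input – 0.15 nM proteasome as dispensed · Timing – 30 min preincubation with enzyme, 25 min cleavage at room temperature · Read-out basis – percent inhibition of cleavage signal versus uninhibited and no-proteasome wells · Medium – Tris-HCl pH 7.4 with ATP-MgCl2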
# E coli growth: E. coli growth inhibition | Escherichia coli growth, OD600, 23 h; hits give low values | OD600 absorbance (no concentration beside the values) | actives 0.21% (n = 330,000) | AID 1053175;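 active means OD600 absorbance below the run mean of sample wells minus 3.6 SD, in any replicate, cut at about 0.56 in these data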;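 further: stock transfer was 300 nL into about 60 µL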
# * marks the source's active call; other numbers are inactive results; & = joins results of further samples. Only part of the results is shown. The share of hits here may be higher or lower than overall.
# Each structure is followed by: UCH37 DUB inh, E coli growth
> CC(C)c1ccc(C=Nn2cnnc2)cc1
  0.2, 0.69
> Cc1ccc(C(=O)Nc2ccc(C(=O)NN=Cc3cccnc3)cc2)cc1
  1.6, 0.63
> CCOc1ccc(N2CC(C(=O)NN=Cc3sccc3C)CC2=O)cc1 (stereo unspecified)
  8.6, 0.69
> O=C(NN=Cc1ccccc1)C1CCCN1C(=O)c1cc([N+](=O)[O-])cc([N+](=O)[O-])c1 (stereo unspecified)
  3.1, 0.73
> O=C(NCC1CCCO1)c1ccc(C=NO)nc1 (stereo unspecified)
  5.9, 0.77
> CC(=O)C(=NNc1ccccc1)Sc1cccc2cccnc12
  5.3, 0.7
> Cc1cccc(C(=O)NN=C2CS(=O)(=O)N(C)c3ccsc32)c1
  6.1, 0.71
> COc1ccc(C=NNc2nc(-c3ccc(C)cc3)c(NC(C)=O)s2)cc1
  -10, 0.71
> CN(C)c1ccc(C=NNC(=O)COc2ccccc2)cc1
  -113, 0.69
> CC(=NNC(=O)c1ccc([N+](=O)[O-])cc1)C(=NO)C(=O)Nc1ccccc1
  2.6, 0.71
> Cc1cc(C(=O)NN=Cc2ccc(OCc3ccccc3)cc2)c(C)o1
  2.3, 0.68
> CCC(C=NNC(=O)C(N)=O)CC
  -2.0, 0.72
> CCCC12CN3CCN(CC(C3)C1=NNC(=O)c1ccccc1Cl)C2
  2.0, 0.69
> Cc1nc(C)c(C(=O)NN=Cc2c[nH]c3ccccc23)s1
  -140, 0.71
> CC(=NNC(=O)c1c(Cl)c(C)nn1C)c1ccc(NC(=O)C2CCC2)cc1
  -35, 0.71
> O=C1CCCC(=NNC(=O)NC2CCCCC2)C1
  2.0, 0.7
> CCCCN1C(=O)C(=c2sc3nc(=O)c(-c4ccccc4)nn3c2=O)c2ccccc21
  -1.5, 0.69
> CC(CC(=O)Nc1cc(Cl)ccc1Cl)=NNC(=O)c1ccccc1Br
  0.5, 0.66
> O=C(CCN1CCOCC1)NN=Cc1cc([N+](=O)[O-])ccc1OC(F)F
  -1.0, 0.71
> O=S(=O)(NN=Cc1c(F)cccc1Cl)c1ccc(Cl)cc1
  2.4, 0.76
> CSCC[C@H](NC(=O)C1CCC(CNC(=O)[C@@H]2CCCN2)CC1)C(=O)O (stereo partly specified)
  3.1, 0.68
> O=C(CCNc1n[nH]c(=O)[nH]c1=O)NN=Cc1cccc(OCc2ccccc2)c1
  0.5, 0.67
> CC(=NN1CCN(c2ccccn2)CC1)c1ccc([N+](=O)[O-])cc1
  4.2, 0.67
> COc1cc(C=NNC(=O)c2cccs2)ccc1OCc1ccccc1
  -15, 0.71
> CCCC(=NNC(=O)c1ccccc1Cl)c1ccccc1
  6.5, 0.72
> CCOc1cccc(-c2c(C(=O)NN=C(C)c3cccs3)nnn2-c2nonc2N)c1
  3.6, 0.69
> COc1cc(C=NNc2ccc(S(N)(=O)=O)cc2)cc(OC)c1OC
  4.4, 0.69
> O=C(CSc1nc2ccccc2o1)NN=Cc1ccccc1C(=O)O
  3.6, 0.69
> O=C(CSc1ncn[nH]1)NN=Cc1ccc(C(F)(F)F)cc1
  0.1, 0.68
> COc1ccccc1/C=C/C=NNC(=O)Cc1cccs1
  2.6, 0.64
> C(=NN1CCN(c2ccccn2)CC1)C1=C(N2CCOCC2)/C(=C/c2ccccc2)CC1
  2.7, 0.73
> CC(C)c1cc(C(=O)NN=Cc2cccnc2)cs1
  11, 0.66
> Fc1ccccc1C=Nn1cc(-c2ccccc2)[nH]c1=S
  -0.4, 0.66
> C=CCN1C(=O)/C(=C2/C(=O)N(CC(=O)O)c3ccccc32)SC1=Nc1nccs1
  1.7, 0.75
> CC(C)(C)c1cc[n+](-c2[nH]c(=O)sc2C=NNC(=O)c2ccccc2[O-])cc1
  4.6, 0.7
> O=C(NN=Cc1c(Cl)cccc1Cl)c1cccc(F)c1
  -3.1, 0.7
> Cc1cc(C=Nn2cnnc2)c(C)n1-c1ccc(Cl)cc1
  3.4, 0.63
> O=C1C2C(C(=O)N1N=Cc1ccc([N+](=O)[O-])o1)C1C=CC2C12CC2 (stereo unspecified)
  8.0, 0.63
> Cc1ccsc1C=NNc1ccc(Cl)nn1
  7.7, 0.71
> COc1cc(C=NNC(=O)c2cc(C3CC3)[nH]n2)ccc1O
  6.4, 0.65
> COc1ccccc1C(=O)NCC(=O)NN=Cc1cn[nH]c1-c1ccccc1
  6.7, 0.68
> CC(C)(C)c1cc(C(=O)NN=Cc2ccco2)n[nH]1
  3.9, 0.67
> NC(=NOC(=O)c1ccncc1)c1cccc([N+](=O)[O-])c1
  2.4, 0.7
> NC(=O)NC(=O)C[n+]1cccc(C=NO)c1
  0.3, 0.66
> CN(N=Cc1cc(Cl)cc(Cl)c1O)c1c(Cl)cccc1[N+](=O)[O-]
  4.0, 0.7
> O=C(NN=C/C=C/c1ccccc1[N+](=O)[O-])c1cccs1
  8.9, 0.68
> Nc1nonc1-n1nnc(C(=O)NN=Cc2ccco2)c1-c1ccccc1
  3.9, 0.65
> Cc1ccc(C=NNc2nc3ccc(Cl)cc3[nH]2)o1
  4.0, 0.69
> O=C(O)COc1ccccc1C=NNC(=O)CN1CCN(S(=O)(=O)c2ccc(Br)cc2)CC1
  4.7, 0.66
> COc1ccc(C=Nn2cnnc2)cc1Cn1nc(C)c([N+](=O)[O-])c1C
  2.6, 0.67
> COc1cc(C=NNC(=O)C(Cc2c[nH]c3ccccc23)NC(=O)OCc2ccccc2)cc([N+](=O)[O-])c1O (stereo unspecified)
  14, 0.7
> CC(CC(=O)Nc1ccc([N+](=O)[O-])cc1)=NNC(=O)c1ccccc1[N+](=O)[O-]
  6.7, 0.65
> COc1ccc(C=NNC(=O)c2ccoc2C)cc1COc1ccc(Cl)cc1
  3.3, 0.76
> CC(=NNC(=O)c1ccc(O)cc1)c1cccc(NC(=O)c2ccccc2C)c1
  3.2, 0.68
> O=C(CNC(=O)C12CC3CC(CC(C3)C1)C2)NN=Cc1ccccn1
  -0.2, 0.67
> CC(=NNC(=O)C1CCCN1C(=O)c1ccc([N+](=O)[O-])cc1)c1ccc(Br)cc1 (stereo unspecified)
  3.6, 0.69
> O=C(NN=Cc1c[nH]c2ccccc12)C1COc2ccccc2O1 (stereo unspecified)
  5.5, 0.66
> COc1cccc(C=NN(C)C2=NS(=O)(=O)c3ccccc32)c1O
  -3.2, 0.66
> Cc1cc(=O)[nH]c(NN=Cc2ccc(C)o2)n1
  12, 0.7
> COc1ccc(O)c(C=NNc2nc3ccccc3[nH]2)c1
  -1.3, 0.67

# Entries of single compounds, looked up by structure. Screens in order: UCH37 DUB inh	E coli growth
# Shown for Cc1ccc(C=NNc2nc3ccc(Cl)cc3[nH]2)o1 = 4.0	0.69
# Shown for CCC(C=NNC(=O)C(N)=O)CC = -2.0	0.72
# Shown for CC(=NNC(=O)c1ccc(O)cc1)c1cccc(NC(=O)c2ccccc2C)c1 = 3.2	0.68
# Shown for COc1cc(C=NNc2ccc(S(N)(=O)=O)cc2)cc(OC)c1OC = 4.4	0.69
# Shown for Cc1cc(C(=O)NN=Cc2ccc(OCc3ccccc3)cc2)c(C)o1 = 2.3	0.68

# The list goes on:
# Each structure is followed by: UCH37 DUB inh, E coli growth
> Cc1ccc(C(=O)NN=Cc2ccc(OC(=O)c3cccc(F)c3)cc2)cn1
  1.1, 0.68
> Cc1nc2ccc(Br)cn2c1C(=O)NN=Cc1ccc(C(C)C)cc1
  1.1, 0.68
> COc1cc(C=Nn2nnnc2N)ccc1OC(C)C
  -27, 0.63
> CCN(CC)c1ccc(C=Nn2c(C)cc(C)cc2=O)cc1
  -25, 0.67
> O=C(NN=Cc1cccc2ccccc12)C(=O)N1CCCC1
  5.1, 0.66
> O=C(NN=Cc1ccco1)c1ccc(NC(=O)c2ccc(Cl)cc2)cc1
  -5.4, 0.71
> Cc1[nH]n(-c2ccccc2)c(=O)c1C=Nc1ccccn1
  11, 0.76
> CCOC(=O)c1ccccc1OCc1cc(C=NNC(=O)c2ccncc2)ccc1OC
  4.8, 0.67
> Cc1cccn2c(=O)c(C=NO)c(NCc3ccccc3)nc12
  -33, 0.7
> Cc1cc(NN=Cc2ccccc2)nc(-c2ccccc2O)n1
  -6.0, 0.69
> COc1cccc(C=NNc2ncc(C(F)(F)F)cc2Cl)c1O
  0.6, 0.67
> COc1cccc(C=NNc2snc(SC)c2C#N)c1O
  -2.1, 0.64
> Cn1cc(C(=O)NN=Cc2cccs2)c2ccccc21
  11, 0.65
> O=C(NN=Cc1ccncc1)c1cnccn1
  6.9, 0.64
> Cc1nn(-c2ccccc2)c(Cl)c1C=NNC(=O)CNC(=O)c1ccccc1Cl
  5.4, 0.74
> Cc1nonc1C(=O)NN=Cc1ccc(O)cc1O
  7.0, 0.57
> CC(=NNS(=O)(=O)c1ccc(C)cc1)c1ccc(C)o1
  -1.0, 0.7
> COc1cccc(C(=O)Oc2c(Br)cc(Br)cc2C=NNC(=O)c2cc(C)[nH]n2)c1
  3.9, 0.74
> O=C(NN=Cc1ccc(OCCCF)cc1)c1ccc(C(F)(F)F)cc1
  1.1, 0.71
> CCCCSc1nnc2c(n1)OC(C(=O)c1ccccc1)Nc1ccccc1-2 (stereo unspecified)
  6.1, 0.71

# Random excerpt: 4 entries already listed.
# Each structure is followed by: UCH37 DUB inh, E coli growth
> O=C(NN=Cc1ccco1)c1ccc(NC(=O)c2ccc(Cl)cc2)cc1
  -5.4, 0.71
> CCN(CC)c1ccc(C=Nn2c(C)cc(C)cc2=O)cc1
  -25, 0.67
> Cc1nc2ccc(Br)cn2c1C(=O)NN=Cc1ccc(C(C)C)cc1
  1.1, 0.68
> Cn1cc(C(=O)NN=Cc2cccs2)c2ccccc21
  11, 0.65

# Next records:
# Each structure is followed by: UCH37 DUB inh, E coli growth
> Cc1ccc2nc(C)cc(SCC(=O)NN=Cc3ccco3)c2c1
  5.6, 0.66
> COc1ccc(CCC(=O)NN=Cc2cccs2)cc1
  0.9, 0.68
> COc1ccc(C(=O)NN=Cc2cccnc2)cc1
  3.8, 0.66
> Cn1cc(C=Nn2cnc3scc(-c4ccccc4)c3c2=O)c2ccccc21
  -8.0, 0.76
> COc1cccc2c(SCC(=O)NN=Cc3ccccc3)cc(C)nc12
  -38, 0.64
> COc1cccc(C=NNC(=O)C(=O)NCc2cccnc2)c1O
  7.4, 0.69
> Cc1cc([N+](=O)[O-])nn1Cc1ccc(C(=O)NN=Cc2ccc(O)cc2O)cc1
  10, 0.7
> Cc1[nH]n(-c2cccc3ccccc23)c(=O)c1C=Nc1sc2c(c1C#N)CCC2
  10, 0.68
> CCN(CC)c1ccc(C=NNS(=O)(=O)c2ccc(CNC(C)=O)cc2)cc1
  7.2, 0.68
> CC(CC(=O)Nc1cccc(Cl)c1Cl)=NNC(=O)c1ccccc1N
  -169, 0.66
> Cn1c2ccccc2c2cc(C=NNC(=O)c3ccccc3F)ccc21
  -72, 0.69
> COc1cc(C(=O)Oc2ccccc2C=NNC(=O)c2ccc(Cl)cc2Cl)cc(OC)c1OC
  5.0, 0.73
> O=c1[nH]c2ccc(NC(=NS(=O)(=O)c3ccccc3)c3ccccc3)cc2[nH]1
  0.6, 0.68
> O=C(COc1ccc(C=NNS(=O)(=O)c2ccccc2)cc1)Nc1cccc(Cl)c1
  -0.1, 0.68
> COc1cc(C=NOCC(=O)NC2CCCCC2C)ccc1OCc1ccc(Cl)cc1 (stereo unspecified)
  4.8, 0.73
> CN1C(=O)N(C)C2(c3ccccc3)Nn3c(sc(=Cc4ccco4)c3=O)=NC12c1ccccc1 (stereo unspecified)
  0.1, 0.72
> CC(=NNC(=O)c1ccccc1O)c1ccc(N2C(=O)C3CCCCC3C2=O)cc1 (stereo unspecified)
  8.2, 0.7
> Cc1ccc(NN=C(C#N)C(=O)c2ccsc2)cc1
  6.2, 0.61
> Cc1ccc(C=NNC(=O)c2cc3c(s2)CCCC3)o1
  -6.0, 0.71
> O=[N+]([O-])c1ccccc1S(=O)(=O)Oc1ccccc1C=Nn1cnnc1
  3.4, 0.7
> O=c1[nH]ncc(NN=Cc2ccncc2)c1Cl
  5.8, 0.66
> Cc1cc(C)n(CC(=O)NN=Cc2ccc([N+](=O)[O-])s2)n1
  13, 0.63
> CCc1ccc(S(=O)(=O)NN=C(C)c2ccncc2)cc1
  2.8, 0.67
> O=c1c2c3nc4ccccc4nc3n(N=Cc3ccncc3)c2ncn1-c1ccccc1
  -4.3, 0.63
> Cc1ccc(C=NNC(=O)c2nnn(-c3nonc3N)c2CN(C)c2ccccc2)s1
  7.9, 0.67
> COc1ccc(C=NNC(=O)c2ccco2)cc1COc1ccc(F)cc1
  -17, 0.69
> Cc1cc(C)n(N=Cc2c[nH]c3ccccc23)c(=O)c1C#N
  5.4, 0.67
> COc1ccccc1C=NNc1cc(N(C)C)nc(N(C)C)n1
  1.7, 0.71
> N#CCC(=O)NN=Cc1ccc(N2N=C(c3ccccc3)CC2c2ccccc2)cc1 (stereo unspecified)
  -322, 0.75
> Cc1cc(C=Nn2cnnc2)c(C)n1-c1cccc(C(=O)O)c1
  5.2, 0.67
> CC(=NNC(=S)Nc1ccc(C(C)C)cc1)c1ccc2c(c1)OCO2
  2.5, 0.74
> CCCc1c(C(=O)NN=C(C)c2ccncc2)nnn1-c1nonc1N
  0.7, 0.69
> CCCc1nc2ccccc2c(=O)n1N=Cc1ccc(O)cc1O
  0.7, 0.71
> Cc1ccc(C(=O)NN=Cc2ccc([N+](=O)[O-])s2)cn1
  12, 0.56
> COc1ccc(C2CC2C(=NO)c2ccccn2)cc1 (stereo unspecified)
  4.2, 0.71
> COC(=O)NN=C(C)c1ccc2ccccc2c1OC(F)F
  4.3, 0.69
> C/C(C=NNC(=O)CSc1nc(C)cc(C)n1)=C\c1ccccc1
  3.5, 0.7
> O=C(Cc1cc(=O)[nH][nH]1)NN=Cc1c(Cl)cccc1Cl
  1.2&5.0, 0.72&0.69
